High-throughput results (PubChem BioAssay)
Anaer choline gr: choline-fed anaerobic bacterial growth inhibition. Gram-negative bacterium anaerobic choline minimal medium, absorbance growth; active compounds read low; many inactives read as strong as hits in the columns shown. calls only. 0.2% of 55,000 active. AID 1963822;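 active = growth z-score on choline under -2 at 7 or 20 h with little or no fall on glycerol, limits in tiers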;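 note: stock transfer was 300 nL into about 50 µL; the organism is E. coli; final concentration not given here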
Anaer choline gr early: second read-out of Anaer choline gr, no call of its own (marks repeat the call); z-score; measured here: choline growth z-score, timepoint 1;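 score of optical density at 7 h as mean of two plates; lower means less growth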
* marks the source's active call; other numbers are inactive results; i = inactive; & = joins results of further samples.

SMILES	Anaer choline gr	Anaer choline gr early
CC1CCC(NC(=O)C2(C)Cn3c(cc4sccc43)C(=O)N2Cc2ccc3c(c2)OCO3)CC1 (stereo not given)	i	0.09
Fc1ccccc1-c1nnc2sc(-c3c[nH]c4ccccc34)nn12	i	-2.1
CCOCCCNC(=O)C1CCN(c2ccc(-c3ccccc3)nn2)CC1	i	-1.7
CCn1c(=O)c(C(=O)Nc2ccc(Cl)cc2)c(O)c2ccccc21	i	0
COc1ccc(-c2nn3c(Nc4ccc(C)cc4)cc(C)nc3c2C)cc1OC	i	0.9
CCOC(=O)c1ncc2[nH]c3cccc(OC(C)C)c3c2c1C	i	0.65
CN1CCN(C(=O)CN2C(=O)COc3ccc(C(=O)N(C)C)cc32)CC1	i	-0.12
Cc1cc(C)n2nc(CN(C(=O)C3CCCCC3)c3ccc(F)cc3)nc2n1	i	-1.9
COc1ccc(C(=O)Oc2cccc(-n3cnnn3)c2)cc1	i	1.6
Cc1cc2c(cc1CNC(=O)Cn1cc(C(=O)C3CC3)c3ccccc31)OCCCO2	i	0.26
Cc1cc(N2CCN(CCO)CC2)n2nc(C(F)(F)F)c(-c3ccc(Cl)cc3)c2n1	i	-0.9
O=C(Nc1sc2c(c1C(=O)NCC1CCCO1)CCCC2)c1cc(=O)c2cc(Cl)ccc2o1 (stereo not given)	i	0.41
O=C(Nc1cc(F)ccc1F)c1ccc(-n2nc(OCc3ccc(Cl)cc3)ccc2=O)cc1	i	0.04
CCCn1c(=O)c2cc(Cl)ccc2n2c(=O)n(CC(=O)Nc3ccc4c(c3)OCCO4)nc12	i	-0.59
Cc1ccc(-c2ccc(-n3nc(C)c(S(=O)(=O)NC4CC4)c3C)nn2)cc1	i	0.57
C=CCn1c(SCC(=O)N2CCc3cc(Br)ccc32)nnc1-c1cc2ccccc2o1	i	-0.39
CCn1c2ccccc2n2cc(-c3ccc4c(c3)OCO4)nc12	i	0.69
CN(C(=O)c1cccc(Oc2cc(-c3ccccc3)ncn2)c1)C1CCCCC1	i	0.54
CCc1ccc(NC(=O)Nc2ccccc2-c2cc3ccccc3[nH]2)cc1	i	1.5
O=C(c1nc(-c2csc(S(=O)(=O)N3CCOCC3)c2)no1)N1CCOCC1	i	0.36
O=C1CC(c2ccc(F)c(Br)c2)c2cnn(-c3ccccc3)c2N1 (stereo not given)	i	1.1
CC(NC(=O)c1ccc2c(=O)nc3c(-c4ccccc4)n[nH]n3c2c1)c1ccccc1 (stereo not given)	i	0.1
CCC(=O)Nc1ccc(-c2cc(C(=O)N3CCN(c4ccc(Cl)cc4)CC3)c3ccccc3n2)cc1	i	0.49
CCC(=O)N1N=C(c2c(O)n(C)c(=S)n(C)c2=O)CC1c1ccc(Br)cc1 (stereo not given)	i	-0.1
CC1=C(C(=O)NCc2ccccn2)C2(CCN(S(C)(=O)=O)CC2)OC1=O	i	-0.05
COc1ccc(N2CC(NC(=O)C3CCCCC3)CC2=O)cc1OC (stereo not given)	i	0.35
CN(C)c1nnc(Cl)c2ccccc12	i	-1.9
O=C(NC1CCCC1)c1cn2ccncc2n1	i	0.67
O=C(Cn1c(N2CCCCC2)nc2ccsc2c1=O)NCCC1=CCCCC1	i	0
Cc1nn(-c2nc3ccccc3o2)c2c1C(c1cccnc1)CC(=O)N2 (stereo not given)	i	-1.7
CC1=C(c2ccc(Cl)cc2)S(=O)(=O)N=C1N1CCC(NC(=O)NC(C)(C)C)CC1	i	-0.61
O=C(NCc1ccccc1)c1ccc(NC(=O)N2CCCCc3ccccc32)cc1	i	-0.75
Cc1ccc(-c2noc(C(=O)N3CCOCC3)n2)cc1S(=O)(=O)N1CCN(c2ccccc2)CC1	i	0.03
Cc1ccc(-c2ncccc2C(=O)N2CCC(C(=O)N3CCOCC3)CC2)cc1	i	-0.04
COc1ccccc1N1CCN(C(=O)c2cc(-c3cccnc3)n(-c3ccccc3)n2)CC1	i	0.02
CCOc1ccc(-c2nc3c(s2)CN(C(=O)Nc2ccccc2CC)CC3)cc1	i	1
Cc1cc(C(=O)Nc2cc(Br)ccc2O)on1	i	-1.2
CC(=O)Nc1nnc(SCc2cc(=O)n3oc(C)cc3n2)s1	i	-0.09
Cc1nn(C)c2nc(OC(C)C(=O)Nc3ccc4c(c3)OCCO4)cc(C(F)(F)F)c12 (stereo not given)	i	0.54
COC(=O)c1ccc(NC(=O)CSc2nnc(NC(=O)Nc3ccc(C)cc3)s2)cc1	i	0.7
CCCN1C(=O)c2cc(S(=O)(=O)N3CCCCC3CC)ccc2Oc2cccnc21 (stereo not given)	i	0.71
COc1ccc(-n2ccnc(SCC(=O)Nc3cc(C)cc(C)c3)c2=O)cc1	i	-0.94
CCc1onc(C)c1C1CCCN1Cc1cn[nH]c1-c1ccccc1 (stereo not given)	i	0.87
CCCCCN(CCCCC)C(=O)C(CCC(=O)O)NC(=O)c1ccc(Cl)c(Cl)c1 (stereo not given)	i	0.28&0.75&-0.07
CCN1CCN(Cc2nc3nc(C)cc(N4CCCC4)n3n2)CC1	i	-1.3
CN(CC(=O)NCCc1c[nH]c2ccccc12)c1nn2c(NC(C)(C)C)c(-c3ccccc3)nc2s1	i	-0.63
CC(C)Cn1c(=O)c2sccc2n2c(SCc3ccc(Cl)cc3)nnc12	i	0.62
CCCOc1ccc(-c2nn3c(=O)c(NC(=O)c4cccc(C)c4)cnc3o2)cc1	i	-0.07
CC(C)CN(C[C@@H](O)[C@H](Cc1ccccc1)NC(=O)O[C@H]1CCOC1)S(=O)(=O)c1ccc(N)cc1	i	0.5
Cc1ccc(-n2nc(C)c3c(=O)n(CC(=O)N4CCN(c5cc(Cl)ccc5C)CC4)ccc32)cc1	i	0.17
COC(=O)C1=CN(c2ccc(N(C)C)cc2)c2cc(Br)ccc2S1(=O)=O	i	1
CC(C)CNC(=O)c1cnn2c(C(F)(F)F)cc(-c3ccc(Br)cc3)nc12	i	0.08
Cc1cccc(NC(=O)c2nc3ccccc3n(C)c2=O)c1	i	-2.1
COc1ccc(NC(=O)Cn2c(C)cc(C)c(S(=O)(=O)c3ccc(OC)c(OC)c3)c2=O)cc1OC	i	0.61
COc1ccc(-c2cc(N3CCN(C(=O)Nc4cccc(OC)c4)CC3)ncn2)cc1	i	0.42
O=S(=O)(c1ccc(F)cc1)N1CCC2(CC1)NCCN=C2NCc1ccccc1	i	0.04
CC(C)Cc1cc(-c2nn3c(-c4cccc(Cl)c4)nnc3s2)n[nH]1	i	-0.53
CCc1ccc(CNC(=O)CCCN2C(=O)CCn3nc(-c4cn(C)c5ccccc45)cc32)cc1	i	-1.2
COc1ccccc1-c1nnc(C2CCN(C(=O)c3ccc(F)cc3)CC2)o1	i	-0.22
O=C(CNS(=O)(=O)c1cc(-c2noc(C3CCC3)n2)cs1)Nc1ccc(Cl)cc1	i	0.25
The list continues:
SMILES	Anaer choline gr	Anaer choline gr early
Cc1c(Cc2ccc3ccccc3n2)c2cc(F)ccc2n1CC(=O)O	i	0.53
CCn1ccc2cc(S(=O)(=O)N3CCCN(C(=O)Nc4ccc(F)c(Cl)c4)CC3)ccc21	i	0.09
Cc1nn(C(C)C(=O)N2CCN(c3ccccn3)CC2)c(=O)c2c(C)n(-c3ccccc3)nc12 (stereo not given)	i	1
CCCn1c(CCc2ccccc2NS(=O)(=O)CCC)nc2ccccc21	i	-0.04
CC(=O)SC1CC2=CC(=O)CC[C@]2(C)C2CC[C@@]3(C)C(CC[C@@]34CCC(=O)O4)C12 (stereo not given in full)	i	0.34
COc1ccc(-c2nn3c(NCc4ccccn4)cc(C)nc3c2C)cc1OC	i	0.13
CCOc1ccccc1NC(=O)c1ccc(N2CCCN(Cc3ccccc3C)C2=O)cc1	i	0.48
Cc1ccc(S(=O)(=O)n2nc(-c3ccc(C)c(C)c3)nc2N)cc1	i	1.2
Cc1ccc2c(=O)c(-c3nc(-c4cccc(F)c4)no3)cn(CC(=O)Nc3ccc4c(c3)CCC4)c2n1	i	-0.56
O=C(NCc1ccc(F)cc1)C1CC(=O)N(Cc2cnn(-c3ccccc3)c2-n2cccc2)C1 (stereo not given)	i	0.85
COc1ccc(-c2noc(CSCC(=O)N3CCN(c4ccccc4OC)CC3)n2)cc1OC	i	-0.93
OCCN1CCN(c2ncnc3c2cnn3-c2ccccc2Cl)CC1	i	0.24
O=C(NCc1ccccc1)c1cccc(Oc2cc(-c3cccc(F)c3)ncn2)c1	i	2.1
Nc1nc(CNS(=O)(=O)c2ccc(Cl)cc2)nn1S(=O)(=O)c1ccc(Cl)cc1	i	1.4
Cc1ccc(-c2cc(=O)n3[nH]c(C)c(-c4ccccc4)c3n2)cc1	i	-1.3
CCOC(=O)c1[nH]c(C)c(CN(Cc2ccc(OC)cc2)C(=O)Nc2ccccc2F)c1C	i	0.26
CCOc1ccc(NC(=O)c2ccnc(N3CCC(C(=O)N4CCOCC4)CC3)c2)cc1	i	-0.71
CC(C)NC(=O)c1ccc2c(c1)NC(=O)CO2	i	-0.53
Cc1cccc(NS(=O)(=O)c2cc(-c3nc(C)c(C)s3)sc2C)c1C	i	1.2
O=C(Nc1ccccc1Cl)N1CCc2c([nH]c3ccccc23)C1c1cccnc1 (stereo not given)	i	-2
O=C(c1ccc(F)cc1)N1CCN=C1N1CCCC1	i	-0.41
CCOC(=O)c1ccc(NC(=O)CCc2ccc3nc(CC)[nH]c3c2)cc1	i	-1.3
CCn1c(N2CCCC(C(=O)Nc3cccc(OC)c3)C2)cc(=O)n(C)c1=O (stereo not given)	i	0.23
O=C(NCCc1ccc(Cl)cc1)c1cnc(N2CCCC2)nc1	i	0.99
NC(=O)c1cccn1Cc1ccc(Cl)cc1	i	-1.9
CC(Nc1nc(N2CCCC2)nc2ccccc12)c1ccccc1 (stereo not given)	i	-3
CCc1c(C)nc(SCc2nc(-c3ccc(C)cc3)oc2C)[nH]c1=O	i	-1.1
CN(CCc1noc(C(=O)NCc2ccc3c(c2)OCO3)n1)C(=O)NCCc1ccccc1	i	-0.47
O=C(Nc1cc(F)cc(F)c1)c1cccc(Nc2ncc(-c3ccc(F)cc3)cn2)c1	i	-0.58
Cc1ccc(NC(=O)C2CC(=O)N(c3cccc(-c4noc(C)n4)c3)C2)c(Br)c1 (stereo not given)	i	0.72
Cc1ccc(-c2noc(C3CC3)n2)cc1S(=O)(=O)NC(C)C(=O)N1CCCC1 (stereo not given)	i	-0.07
COc1cccc(NC(=O)CCc2c(C)nn(-c3cc(N4CCCC4)ncn3)c2C)c1	i	0.22
Cc1cccc(NC(=O)COc2cccc3c(=O)n(C)ccc23)c1C	i	0.47
COc1cc(NC(=O)Cn2c(C)cc(C)c(S(=O)(=O)c3ccc(OC)c(OC)c3)c2=O)cc(OC)c1	i	-0.05
CCOC(=O)c1c(C)[nH]c(C(=O)N2CCC(CC(=O)NCc3ccc(OC)cc3)CC2)c1C	i	-1.1
Cc1ccc(NC(=O)C2Nc3cc(F)ccc3S(=O)(=O)N2)cc1Cl (stereo not given)	i	1.1

Reformatted as comma-separated lines: entries from further up
canonical_smiles,Anaer choline gr,Anaer choline gr early
CCOC(=O)c1ccc(NC(=O)CCc2ccc3nc(CC)[nH]c3c2)cc1,i,-1.3
CCn1c(N2CCCC(C(=O)Nc3cccc(OC)c3)C2)cc(=O)n(C)c1=O (stereo not given),i,0.23
O=C(NCCc1ccc(Cl)cc1)c1cnc(N2CCCC2)nc1,i,0.99
NC(=O)c1cccn1Cc1ccc(Cl)cc1,i,-1.9
CC(Nc1nc(N2CCCC2)nc2ccccc12)c1ccccc1 (stereo not given),i,-3
CCc1c(C)nc(SCc2nc(-c3ccc(C)cc3)oc2C)[nH]c1=O,i,-1.1
CN(CCc1noc(C(=O)NCc2ccc3c(c2)OCO3)n1)C(=O)NCCc1ccccc1,i,-0.47
O=C(Nc1cc(F)cc(F)c1)c1cccc(Nc2ncc(-c3ccc(F)cc3)cn2)c1,i,-0.58
Cc1ccc(NC(=O)C2CC(=O)N(c3cccc(-c4noc(C)n4)c3)C2)c(Br)c1 (stereo not given),i,0.72
Cc1ccc(-c2noc(C3CC3)n2)cc1S(=O)(=O)NC(C)C(=O)N1CCCC1 (stereo not given),i,-0.07
COc1cccc(NC(=O)CCc2c(C)nn(-c3cc(N4CCCC4)ncn3)c2C)c1,i,0.22
Cc1cccc(NC(=O)COc2cccc3c(=O)n(C)ccc23)c1C,i,0.47
COc1cc(NC(=O)Cn2c(C)cc(C)c(S(=O)(=O)c3ccc(OC)c(OC)c3)c2=O)cc(OC)c1,i,-0.05

The results go on:
SMILES	Anaer choline gr	Anaer choline gr early
CCOC(=O)c1c(C)c(S(=O)(=O)N2CCCCC2)c(C)n1C	i	0.17
COc1ccc2c(c1)c1nc(SCC(=O)c3ccccc3)n(CCO)c(=O)c1n2C	i	-0.95
Cc1[nH]nc(-c2cc(S(=O)(=O)NCCc3ccccc3)c(C)s2)c1C	i	-0.37
O=C(CN1C(=O)COc2ccc(Cl)cc21)N1CCN(c2ccc(-c3noc(C4CC4)n3)cc2)CC1	i	0.86
Cc1ccc(NC(=O)c2ccc(C3Nc4ccccc4S(=O)(=O)N3)cc2)cc1C (stereo not given)	i	0.25
Cc1ccc2c(c1)C=C(C(=O)NC1CCCCC1)C=CO2	i	0.23
Cc1cccc(CNC2=NCCNC23CCCCC3)c1	i	-1.4
COc1ccc(-n2c(=O)n(CC(=O)NCc3ccc(Cl)cc3)c(=O)c3cccnc32)cc1	i	-0.44
Cc1c(C(=O)Nc2cccc(Cl)c2)sc2nc3n(c(=O)c12)CCCCC3	i	2
Cc1cc(C)cc(C(=O)NCCc2sc3nc(-c4ccc(F)cc4)nn3c2C)c1	i	0.61
CCOc1cccc(CN2CCCC2c2cc(C)on2)c1O (stereo not given)	i	-0.42
Cc1cccc(C2=Nc3ccccc3N=C(c3cc(C)ccc3O)C2)c1	i	0.1
CCOCCCNC(=O)c1ccc2c(c1)N(Cc1ccccc1)C(=O)CS2=O (stereo not given)	i	-0.1
O=C(NC1CCCC1)c1ccc(N2CCNCC2)c(NS(=O)(=O)c2ccc3c(c2)CCCC3)c1	i	0.63
CC(C)c1cc(C2CCCN2Cc2cn[nH]c2-c2ccccc2)no1 (stereo not given)	i	-1
Cc1cc(C(=O)N2CCC(C)CC2)c(C)n1CCN1CCCC1	i	0.44

An excerpt. The share of hits here may be higher or lower than overall.
